Ba CapD inh – blocks the Bacillus anthracis CapD enzyme; purified CapD enzyme, fluorescence intensity read-out; hits give low values; some hits fall short of the stated cut; z-score (test concentration not listed); 140,000 compounds, 0.23% hits; AID 492967;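 active = z-score under -4 in either of two replicates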;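 also: stock transfer was 100 nL into about 40 µL; score is relative to mean and spread of the plate; one replicate is shown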
AID504770 – growth inhibitors of E. coli YBA685 in a screen for V. cholerae RctB (chromosome II replication) inhibitors; E. coli YBA685 rctB-dependent plasmid, OD600 growth, 3 h; hits give low values; 130,000 compounds, 0.27% hits; z-score (no concentration beside the values);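 active = z-score under -2 on both plates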;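 also: wells of about 30 µL received 100 nL stock; score is relative to mean and SD of the test wells; the first replicate is given; strong numbers were not always called active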
* marks the source's active call; other numbers are inactive results; i = inactive; . = no result given.

SMILES | Ba CapD inh | AID504770
CCc1cc2c(=O)c(-c3cnn(-c4ccccc4)c3)c(C)oc2cc1O | 0.42 | -0.6
CCc1cc2c(SCC(=O)c3ccccc3)ncnc2s1 | 1.2 | 0.55
Cc1c(C(=O)NCc2ccccc2)oc2ccc(S(=O)(=O)N3CCCC3)cc12 | -0.35 | -0.4
CCOC(=O)c1sc(N(Cc2ccccc2)C(=O)CSc2nnc(-c3ccco3)n2C)nc1C | . | -0.2
CC(C)CNC(=O)N1CCC2(CC1)NC(=O)c1ccccc1O2 | 0.24 | 0.8
Cc1nc(C)c(CC(=O)N/N=C/c2ccc(F)cc2)c(=O)[nH]1 | . | 2.7
CCN(CC)C(=O)CSc1nc2c(sc(=S)n2Cc2ccco2)c(=O)n1-c1ccccc1 | -0.56 | .
CCn1c(=O)n(CC(=O)NCC2CCCO2)c(=O)c2ccccc21 (configuration not stated) | 5.5 | .
Cc1c(CN2CC=C(c3ccccc3)CC2)c(=O)n(-c2ccccc2)n1C | . | 0.45
O=C(NCCN1CCCCCC1)c1ccc(CS(=O)(=O)c2ccc(Br)cc2)o1 | 0.14 | 1.5
N#Cc1nn(-c2ccccc2)nc1N1CCCCC1 | 22 | 2.6
N=C(N=C(N)N)N(c1ccccc1)c1ccccc1 | 0.05 | -0.75
CC(C)CNC(=O)c1nc(-c2ccccc2)n(-c2ccccc2)n1 | . | -0.3
CCc1c(C)sc(NC(=O)c2cnn3cccnc23)c1C#N | -1.1 | -0.4
Cc1ccc2nc(C(F)(F)F)cc(OCCN(C)C)c2c1 | -0.34 | 1.4
CC(Nc1ncnc2c1cnn2C)C1CC2CCC1C2 (configuration not stated) | . | -0.75
CN(C(=O)CN1CCN(c2ccccc2O)CC1)c1ccccc1 | . | -0.25
O=[N+]([O-])c1cc(Cl)c(-n2cccc2)cc1N1CCCC1 | -1.1 | .
CC(C)CCOc1ccccc1C(N)=O | 0.4 | -0.25
O=C(Nc1ccccc1)C1CC(=O)N(Cc2ccc3c(c2)OCO3)C(=Nc2ccccc2)S1 (configuration not stated) | 0.29 | .

Given as comma-separated lines: entries from further up
Structure,Ba CapD inh,AID504770
CCc1cc2c(=O)c(-c3cnn(-c4ccccc4)c3)c(C)oc2cc1O,0.42,-0.6
CCc1cc2c(SCC(=O)c3ccccc3)ncnc2s1,1.2,0.55
Cc1c(C(=O)NCc2ccccc2)oc2ccc(S(=O)(=O)N3CCCC3)cc12,-0.35,-0.4
CCOC(=O)c1sc(N(Cc2ccccc2)C(=O)CSc2nnc(-c3ccco3)n2C)nc1C,.,-0.2
CC(C)CNC(=O)N1CCC2(CC1)NC(=O)c1ccccc1O2,0.24,0.8
Cc1nc(C)c(CC(=O)N/N=C/c2ccc(F)cc2)c(=O)[nH]1,.,2.7
CCN(CC)C(=O)CSc1nc2c(sc(=S)n2Cc2ccco2)c(=O)n1-c1ccccc1,-0.56,.
CCn1c(=O)n(CC(=O)NCC2CCCO2)c(=O)c2ccccc21 (configuration not stated),5.5,.
Cc1c(CN2CC=C(c3ccccc3)CC2)c(=O)n(-c2ccccc2)n1C,.,0.45
O=C(NCCN1CCCCCC1)c1ccc(CS(=O)(=O)c2ccc(Br)cc2)o1,0.14,1.5
N#Cc1nn(-c2ccccc2)nc1N1CCCCC1,22,2.6
N=C(N=C(N)N)N(c1ccccc1)c1ccccc1,0.05,-0.75
CC(C)CNC(=O)c1nc(-c2ccccc2)n(-c2ccccc2)n1,.,-0.3
CCc1c(C)sc(NC(=O)c2cnn3cccnc23)c1C#N,-1.1,-0.4
Cc1ccc2nc(C(F)(F)F)cc(OCCN(C)C)c2c1,-0.34,1.4
CC(Nc1ncnc2c1cnn2C)C1CC2CCC1C2 (configuration not stated),.,-0.75

(list continues)
SMILES | Ba CapD inh | AID504770
CCN(CC)C(=O)N1CC(C)CC(C)C1 (configuration not stated) | 0.21 | -0.2
CC1(C)CC(=O)C(C=NCC(O)CO)=C(O)C1 (configuration not stated) | -0.015 | -0.9
CN(C(=O)CN1C(=O)C2CC=CCC2C1=O)C1CCS(=O)(=O)C1 (configuration not stated) | . | -0.1
O=C(Nc1ccccc1C(F)(F)F)c1noc2c1CCc1ccccc1-2 | -0.06 | -0.1
CCC1(C)COC2(OC1)C(=O)Nc1ccccc12 (configuration not stated) | 0.27 | .
COC(=O)C1=C(C(=O)OC)SC(=C2C(=S)C(C)(C)N(C(=O)CSc3nc4ccccc4o3)c3ccc(OC)cc32)S1 | 0.34 | .
Cc1nc(N2CCN(C)CC2)c2c(C)c(C(=O)Nc3ccc4c(c3)OCCO4)sc2n1 | -0.66 | .
COc1cc2[nH]c(=O)c(C(=O)NC(C)c3ccccc3)c(O)c2cc1OC (configuration not stated) | 21 | -0.1
COc1ccc(-c2[nH]ncc2-c2cnc(C)s2)c(O)c1 | 0.46 | -0.35
CN(C)/C=C/C(=O)c1ccsc1 | -6.3* | -1.6
CCOC(=O)C1=C(C(F)(F)F)NC2=C(C(=O)CCC2)C1c1ccc(F)cc1 (configuration not stated) | -0.15 | .
O=C(CC(CC(=O)N1CCN(c2cc(C(F)(F)F)ccn2)CC1)c1ccc(Br)cc1)C1CC1 (configuration not stated) | 75 | .
C1=C(CCNc2nc3ccccc3n3cnnc23)CCCC1 | 0.54 | -0.15
Cc1ccccc1NC(=O)c1sc(=S)n(-c2ccccc2C)c1N | 0.055 | .
c1ccc(-c2nc3c(c(N4CCCCC4)n2)C2(CCCC2)Cc2ccccc2-3)cc1 | 1.3 | .
CCN(CC)C(=O)c1ccccc1NC(=O)c1ccccc1 | . | -0.5
COc1ccc(Cn2c(N)c(S(=O)(=O)c3ccccc3)c3nc(C#N)c(C#N)nc32)cc1 | . | 0.25
CCOC(=O)c1c(/N=C/C2C(=O)c3ccccc3C2=O)sc(C)c1C | 16 | -0.1
O=C(/C=N/O)Nc1cccc(C(F)(F)F)c1 | 0.33 | 1
O=C(NCc1ccco1)c1cccc(N2CCCC2=O)c1 | 0.15 | -0.85

Part of the list above, in CSV form.
Molecule,Ba CapD inh,AID504770
O=C(NCc1ccco1)c1cccc(N2CCCC2=O)c1,0.15,-0.85
COc1cc2[nH]c(=O)c(C(=O)NC(C)c3ccccc3)c(O)c2cc1OC (configuration not stated),21,-0.1

(listing goes on)
SMILES | Ba CapD inh | AID504770
C/C(N)=C(/C#N)C(=O)CSc1nc2ccccc2n1CC(C)C | . | 1
CCCn1cc(C(=O)c2ccc(C)cc2)c(=O)c2ccc(C)nc21 | -0.69 | 0.35
Cc1cc(P(=N)(N2CCOCC2)N2CCOCC2)c(C)n1-c1ccc(I)cc1 | . | -0.1
CCOC(=O)c1cc2c(C(F)(F)F)cc(=O)[nH]c2o1 | 79 | 1.5
N#C/C(=C\c1ccccc1)C(=O)NN1CCOCC1 | . | 0.2
Cc1oc2c(c1C(=O)NC(C)(C)C)C(=O)c1ccccc1C2=O | -0.4 | 1.6
Cc1nnc(-c2ccccc2)c(=O)n1/N=C/c1ccc2c(c1)OCO2 | -2 | -0.4
COC(=O)C1=C(C)NC2=C(C(=O)CC(C)(C)C2)C1c1ccccc1Cl (configuration not stated) | 3.8 | 0.55
CCOC(=O)c1sc(N)nc1C(F)(F)F | 1.2 | -0.6
O=C1CCCC(=O)C1C1c2ccccc2Oc2ccc(F)cc21 (configuration not stated) | 0.77 | -0.25
COc1ccc(CNC(=O)C2CSC(c3ccc(OC)cc3)N2C(C)=O)cc1 (configuration not stated) | -0.08 | -0.2
CNC(=O)c1nc(-c2ccccc2)no1 | -0.095 | -0.8
C=CCNC(=O)CSc1ccc(F)cc1 | -0.3 | -0.45
COc1cc2c(cc1/C=C1/NC(=O)N(Cc3ccccc3)C1=O)OCO2 | 1.9 | 2.4
COc1cc(Cl)c(C)cc1NC(=S)N(Cc1ccc(C)cc1)Cc1ccco1 | 0.73 | .
S=P1(NCc2ccccc2)NC(=NCc2ccccc2)c2c(nc3n2CCC3)N1 (configuration not stated) | 0.095 | -0.85
CC(C)(C)C1=CC(CO)CC(CO)C1 (configuration not stated) | . | -0.4
CN(C)CCN(Cc1ccccc1)Cc1ccsc1 | 0.12 | -0.05
COc1ccc(CNC2CC(C)(C)NC(C)(C)C2)cc1 | 0.52 | 0.6
O=C(NCc1ccccc1)NC1(C(=O)N2CCCC2)CCCCC1 | . | -0.65
Cc1ccc(S(=O)(=O)c2cnc(N)nc2-c2ccc(Cl)cc2)cc1 | -0.055 | .
CCC1COC(c2cccn2Cc2ccccc2Cl)=N1 (configuration not stated) | 0.35 | -0.2
CCN1CCN(c2cc(C)c3cc(NC(=O)CC4CCCCC4)ccc3n2)CC1 | 10 | .
Cc1cccn2c(=O)c(/C=C3\SC(=S)N(C)C3=O)c(N3CCCC3)nc12 | 0.025 | 0.55
COc1ccccc1N1CCN(c2ncnc3sc(C(=O)N4CCC(C)CC4)c(C)c23)CC1 | 0.075 | .
O=C(COC(=O)C1CCC1)c1ccccc1 | 0.19 | -1.1
O=C(CN1C(=O)/C(=C2\SC(=S)N(C3CCS(=O)(=O)C3)C2=O)c2ccccc21)Nc1cccc(Cl)c1 (configuration not stated) | -0.3 | .
CC(=O)Nc1cc(C(F)(F)F)ccc1N1CCN(c2ccccc2)CC1 | -0.36 | 0.15
Cc1cc(C(=O)CSc2nccn2Cc2ccccc2)c(C)n1-c1ncn[nH]1 | . | 0.25
COc1ccc(-c2cc(=NCCc3ccccc3)c3cc(C)ccc3o2)cc1 | 18 | -0.6
CC(=O)Nc1ccc(C)c(C)c1 | -0.48 | .
COC(=O)COc1ccccc1C#N | 0.095 | 0.1
CCC(Sc1nc2ccccc2s1)C(=O)Nc1ccc(S(N)(=O)=O)cc1 (configuration not stated) | -0.12 | .
Cc1ccc(C2=CC(c3cccs3)n3c(nc4ccccc43)N2)cc1C (configuration not stated) | -1.4 | 0.2
CS(=O)(=O)N(Cc1ccccc1)c1ccccc1 | 0.49 | -0.8
CCCC1SC2=NC(c3ccccc3)=C(C(=O)OCC)C(c3c(OC)ccc4ccccc34)N2C1=O (configuration not stated) | 0.24 | .
Cc1noc(C)c1S(=O)(=O)N(C)CC(=O)N1CCc2ccccc21 | 0.67 | 0.6
CC1(C)CC2CC(C)(CN2C(=O)COC(=O)Cn2[nH]c(=O)c3ccccc3c2=O)C1 (configuration not stated) | . | 1.1
Cc1ccccc1CSCc1ccc(C(=O)NCc2cccs2)o1 | -0.28 | 0.75
N#Cc1cccnc1NNC(=O)CC1(CC(=O)O)CCCC1 | -1.1 | 0.4
O=C(Nc1cc(C(F)(F)F)cc(C(F)(F)F)c1)c1ccc(F)cc1 | 0.54 | .
CCOC(=O)CSc1nnc(Cc2ccc(OC)c(OC)c2)o1 | . | -1.1
O=C(Cc1cccc2ccccc12)Nc1nnc(-c2ccccc2)s1 | i | 0
Cc1cc(N2C(=O)C(N3C(=O)c4c(Cl)c(Cl)c(Cl)c(Cl)c4C3=O)C2c2cccc(Br)c2)ccc1Br (configuration not stated) | -0.48 | .
O=C(CC1NC2CCCCC2NC1=O)Nc1ccc2c(c1)OCCO2 (configuration not stated) | -0.03 | -0.2
CC1=CS(=O)(=O)CC1SC(=S)N(C)C1CCS(=O)(=O)C1 (configuration not stated) | -1.4 | -0.35
Cc1ccc(/C(N)=N/O)cc1 | 0.17 | -0.85
CCN1CCCC1CNC(=O)c1cc2c(=O)[nH]c3ccc(C)cc3c2s1 (configuration not stated) | 81 | 0.85
Cc1nn(-c2ccccc2)c(-n2cccc2)c1C(=O)N1CCCC1 | 7.6 | 2.5
COc1ccc(-n2c(=S)[nH]c3cc(C(=O)NCc4cccc(Cl)c4)ccc3c2=O)c(OC)c1 | -0.43 | .
O=C(NCCc1nc(-c2ccccc2)cs1)c1ccccc1 | -0.46 | -0.35
CC(=O)N1CCc2cc(S(=O)(=O)NC(C)C(=O)O)ccc21 (configuration not stated) | 0.1 | -0.1
COc1ccc(OCCNS(=O)(=O)c2ccc3c(c2)oc2ccccc23)cc1 | -0.015 | -0.65
CC1OC(NCCc2ccccc2)C(O)C(O)C1O (configuration not stated) | 1.2 | 0.45
CCCC1Nc2ccccc2S(=O)(=O)N1 (configuration not stated) | 3.8 | -0.3
CCOC(=O)N=Nc1c(O)[nH]c2ccc(F)cc12 | -0.41 | .
O=C(CC1NCCN(Cc2ccccc2)C1=O)N/N=C/c1cc(Cl)cc(Cl)c1O (configuration not stated) | 0.19 | -0.75
OCc1cn(Cc2ccccc2)c2ccccc12 | -0.45 | .
O=C(Cn1c(=O)n(-c2ccc(F)cc2)c(=O)c2oc3ccccc3c21)NCc1ccc2c(c1)OCO2 | . | -0.95
O=C(OCC(=O)N1CCCCC1)c1ccc(Oc2ccccc2)cc1 | -0.34 | 0

(more compounds)
SMILES | Ba CapD inh | AID504770
C/C(=N\NC(=O)Cn1nnc(-c2cccc(C(F)(F)F)c2)n1)c1ccncc1 | . | 0.3
Cc1cccc(C(=O)N/C(=C/c2ccco2)C(N)=O)c1 | -1.3 | 0.4
O=c1oc2ccccc2n1CCCOc1ccccc1 | -0.12 | -0.3
O=C1CCCC(O)=C1C=NCc1ccccc1 | 0.46 | -0.15
CCOC(CNC(=O)Nc1ccccc1OC)(OCC)c1ccccn1 | 0.08 | .
CN(C)c1nc(N2CCCCC2)nc(N2CCCCC2)n1 | 0.78 | -0.35
N#CCCN(Cc1ccccc1)C(=O)c1ccccc1 | 0.64 | 0.4
O=C(NCCc1ccccn1)c1ccc2nccnc2c1 | 0.35 | -0.25
Cc1cc(N2CCN(C)CC2)nc2ccc(NC(=O)NC3CCCC3)cc12 | 50 | -1.1
COc1ccc(N2C(=O)/C(=C/c3ccc(OCc4ccccc4C#N)c(OC)c3)C(=O)NC2=S)cc1 | -0.2 | .
CCOC(=O)c1cnc2c(C(=O)OC)c[nH]n2c1=O | 35 | 0.75
COc1ccc2cc3cc(C(=O)N4CCC5(CC4)OCCO5)oc3nc2c1 | 0.17 | -0.3
